TRPV1 PAM: enhances activation of the human vanilloid receptor TRPV1; Q8NER1; TRPV1-expressing cells, Fluo-8 calcium influx, capsaicin EC20 potentiation; host cell line not named in the record; control for the full effect not named in the record; potentiation, % at 8.33 µM; 320,000 tested, 0.02% active; AID 540277; active means potentiation above 80%; inconclusive means 30% to 80%; inactive means below 30%; also: 0% is about no effect
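Fluo-8 calcium influx in TRPV1-expressing cells, kinetic read (ex 480/em 520 nm). Compound added and read 3 min for agonist activity, followed by capsaicin at EC20 final and 2 min further read for enhancement.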
ClpP mod: qHTS Assay for Activators of ClpP; AID 651965, 2013; 340,000 tested, 1.9% active; purified B. subtilis ClpP, FRET peptide cleavage, 20 min; Potency, µM (highest dose often 57.5 µM), for inactives: top-dose activity change, negative = active; active = well fitted falling curve with a large enough effect; inconclusive = small, poorly fitted or top-dose-only effect; inactive = no such curve, though single readings can be large or run the other way; also: potency is read from the fitted curve at half-maximal effect; the source files actives as falling curves though it sought activators and does not explain the sign; nearly all actives have a fitted effect of over 65% in size; many hits overshoot -100%
Target sequence (P80244 whole entry, looked up): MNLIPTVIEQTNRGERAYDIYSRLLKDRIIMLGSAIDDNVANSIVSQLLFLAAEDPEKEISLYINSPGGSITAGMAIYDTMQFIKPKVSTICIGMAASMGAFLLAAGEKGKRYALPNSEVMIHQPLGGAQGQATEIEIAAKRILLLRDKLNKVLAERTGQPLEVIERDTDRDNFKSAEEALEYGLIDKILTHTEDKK
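ClpP 10 microg/mL final, pH 8 Tris/KCl buffer with BSA, glycerol, Tween-20; compound pinned in; FRET-FV substrate; RT 20 min; Ex320/Em430; ΔFRET vs ADEP 5.8 microM, DMSO, no enzyme.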
TRPML1 inh: human mucolipin-1 channel inhibition. TRPML1-inducible cells, Ca2+ dye fluorescence, FDSS; hits give low values; inhibition of EC80 agonist-evoked calcium signal. Q9GZU1. AID 624415. 390,000 tested, 0.02% active. activity change, negative = inhibition, % (test concentration not listed); in the data active means activity change below about -50%; inconclusive means about -30% to -50%; inactive means above about -30%;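 also: stimulus is agonist 54-4 at its EC80 concentration; % is scaled to controls: 0 for no effect and ±100 for the full control effect; compound concentration not given in the record; the text of the record puts the active cut at -80%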
Target sequence (Q9GZU1 whole entry, looked up): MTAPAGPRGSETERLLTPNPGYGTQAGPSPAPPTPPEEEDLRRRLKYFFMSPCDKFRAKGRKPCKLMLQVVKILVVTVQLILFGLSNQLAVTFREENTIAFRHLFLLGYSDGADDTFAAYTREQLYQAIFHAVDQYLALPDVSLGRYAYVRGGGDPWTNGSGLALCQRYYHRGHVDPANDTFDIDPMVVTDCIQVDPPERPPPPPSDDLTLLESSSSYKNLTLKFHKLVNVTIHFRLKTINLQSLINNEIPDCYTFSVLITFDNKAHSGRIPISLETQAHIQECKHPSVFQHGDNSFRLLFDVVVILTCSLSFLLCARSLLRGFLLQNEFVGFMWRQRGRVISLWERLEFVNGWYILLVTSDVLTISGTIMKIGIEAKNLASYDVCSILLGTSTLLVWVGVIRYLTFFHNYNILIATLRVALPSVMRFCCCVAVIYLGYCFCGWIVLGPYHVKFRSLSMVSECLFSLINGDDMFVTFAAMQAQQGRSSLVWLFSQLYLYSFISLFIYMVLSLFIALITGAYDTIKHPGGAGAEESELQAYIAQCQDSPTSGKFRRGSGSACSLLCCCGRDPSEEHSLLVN
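Calcium fluorescence in TRPML1-DL cells induced overnight with Tet: a 110 s read after compound pin addition, then a 110 s antagonist read after challenge with 54-4 at 4 uM final (EC80).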
gsp agonist: activates gsp, the McCune-Albright syndrome mutation | AID 624287 | 340,000 tested, 0.13% active | Potency, µM (top dose mostly 76.9 µM), for the others: at the highest dose activation (cAMP increase), actives largely listed as activators | gsp mutant cells, cAMP HTRF, 30 min; control for the full effect not named in the record; active = well fitted activation curve with a large enough effect; inconclusive = small, poorly fitted or top-dose-only effect, or another doubt; inactive = no such curve, though single readings can be large or run the other way; cell line not stated here;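 also: phosphodiesterase inhibitor Ro 20-1724 added with compounds to block cAMP breakdown; potency is read from the fitted curve at half-maximal effect; nearly all actives have a fitted effect of over 60% in size; about a fifth of the inactives were tested at one dose only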
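Cells in DMEM/10% FBS with G418 were pretreated with compounds in DMSO plus […] (300 uM stock) for 30 min at 37C. cAMP was measured by HTRF (cAMP-d2 plus anti-cAMP antibody-K) after 30 min at room temperature.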
gsp antagonist: antagonists of gsp mutant (McCune-Albright syndrome); gsp-mutant cells, cAMP HTRF, 30 min; control for the full effect not named in the record; Potency, µM (doses to about 76.9 µM), without a hit: top-dose activity change, negative = inhibition, actives largely listed as inhibitors; 340,000 tested, 0.4% active; active = falling curve of any shape with a large fitted effect; inconclusive = falling curve, mostly with a smaller effect; inactive = flat or rising curve; cell line not stated here;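 also: intracellular cAMP measured with PDE inhibitor Ro 20-1724 present during compound exposure; potency is read from the fitted curve at half-maximal effect; % is scaled to controls: 0 for no effect and ±100 for the full control effect; nearly all actives have a fitted effect of over 65% in size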
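Measurement of cellular cAMP by homogeneous time-resolved fluorescence following a 30 min compound exposure at 37C. The PDE inhibitor […] was present throughout; the assay buffer was DPBS with 0.05% BSA and 0.005% Tween 20.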
Menin MLL FP FL: inhibitors of human menin-MLL interaction, wild-type MLL peptide | FP activity change, % at 61.4 µM | 290,000 tested, under 10 active | Fluorescence polarization, fluorescein-MLL peptide displacement from menin; inconclusive = falling polarisation curve, or a change in total fluorescence; inactive = total fluorescence flat and polarisation flat or rising; no compound was filed as active; the % refers to the polarisation; negative = inhibition;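 also: % of control where 0% means no effect; inhibitors lower the polarisation; unlabelled MLL peptide was the positive control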
Sfp inh: blocks B. subtilis Sfp PPTase activity; AID 1490; Biochemical Sfp PPTase activity, qHTS; Potency, µM, without a hit: max response, negative = inhibition, hits mostly inhibitors; Q9F4F7; 310,000 tested, 3.5% active; active = well fitted inhibition curve with a large enough effect; inconclusive = small, poorly fitted or top-dose-only effect, or another doubt; inactive = no such curve, though single readings can be large or run the other way;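 also: the enzyme is Sfp with the accession as filed and its product quenches rhodamine fluorescence; potency is read from the fitted curve at half-maximal effect; 0% = enzyme reaction without inhibitor and -100% = no enzyme wells; top concentration of the series not given in the record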
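With Hepes-Na pH 7.6 buffer containing 10 mM MgCl2, Sfp (15 nM) modified BHQ-2-YbbR (12.5 uM) using rhodamine-CoA (5 uM). Two reads 30 minutes apart at 525/598 nm yielded each well's rate.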
Active calls of the source: *; ? = inconclusive; . = not tested or not shown; & = joins results of further samples; [ ] = dose if it differs, or a comment. Random draw from the library. Share with any hit: about 4.9%.

Values run as follows: TRPV1 PAM, ClpP mod, TRPML1 inh, gsp agonist, gsp antagonist, Menin MLL FP FL, Sfp inh
COc1ccc(NC(=O)COC(=O)C23CCC(=O)N2c2ccccc2S3)cc1 (configuration not stated)
    5, 0.5%, -2, -1%, ?, -1.8, 6%
O=C1c2ccccc2-c2nnc(-c3ccccc3)cc21
    -1, 1.0%, 2, -3%, 10%, 7.6, 4%
Cn1c(CNC(=O)CNC(=O)c2cccc(F)c2)cc(=O)n(C)c1=O
    8, -0.3%, 6, 18%, 5%, -2.7, 14%
CCCNC(=O)COC(=O)c1cc(SC)ccc1Cl
    -1, -5.5%, 9, -15%, 6%, 1.3, 14%
COC(=O)c1ccc(S(=O)(=O)N(Cc2cc3cc4c(cc3[nH]c2=O)OCO4)C2CCCCC2)cc1
    -2, ., ., ., ., -1.1, 24%
CCC(=O)Nc1ccc(Cl)c(-c2nc3ncccc3o2)c1
    -7, -2.5%, 15, 10%[15.4 µM], -14%, 0.6, 3%
CCC1(c2ccc(F)cc2)NC(=O)N(CC(=O)NCc2ccc(F)cc2)C1=O (configuration not stated)
    12, -0.8%, -17, 41%, 8%, 4.6, 3%
O=c1sc2ccccc2c(=O)n1Cc1ccccc1F
    9, ., -4, -5%, -1%, -0.4, 4%
CN(C)CCSc1nc(O)c(-c2ccccc2)c(=O)n1-c1ccccc1
    8, 2.2%, -7, -3%[15.4 µM], 13%, -0.8, ?
COc1cccc(NC(=O)CN(C)C(=O)COc2ccccc2Cc2ccccc2)c1
    -7, 0.9%, 18, ?, 0%, ., .
CCN(C(=O)CSc1nnc(-c2ccccc2Br)o1)C1CCS(=O)(=O)C1 (configuration not stated)
    -4, ., 13, -2%[15.4 µM], ., 1.1, 5%
Cc1ccc(C(=O)NCC(=O)NCCc2ccc(S(N)(=O)=O)cc2)s1
    -13, -0.4%, -6, -25%, 7%, 0.5, -1%
CCN(CC)c1ccc(/C=N/N2C(=O)c3ccccc3C2=O)cc1
    -8, 0.8%, 14, -18%, 11%, 6.8, -11%
CCC(C(=O)OC(C)C(=O)Nc1ccc(Cl)cn1)c1ccccc1 (configuration not stated)
    -23, -1.1%, 5, -11%, 12%, ., 11%
CCOc1cc(N2CCOCC2)c(OCC)cc1NC(=O)c1oc2ccccc2c1C
    -7, ., 3, -6%[15.4 µM], -2%, -4.6, 4%
O=C(O)CCCCCN1C(=O)C(=O)/C(=C(/O)c2ccccc2)C1c1ccccc1 (configuration not stated)
    16, -11%, 4, 8%, 8%, -2.0, 7%
CSc1ccccc1C(=O)NCCCn1ccnc1
    4, ., 2, -20%, 9%, 0.1, -7%
O=C(O)C1C2C=CC(C3CC23)C1C(=O)NCCc1ccccc1 (configuration not stated)
    1, 0.5%, -16, -1%, 9%, 3.8, -7%
CC1=C(C(=O)Nc2ccccc2)C(c2ccncc2)C(C#N)=C(SCC(=O)NC(C)C)N1 (configuration not stated)
    ?, -0.6%, 20, -4%, -11%, 2.9, ?
CCC(NC(=O)CCc1c(C)c2cc3c4c(oc3cc2oc1=O)CCCC4)C(=O)O (configuration not stated)
    8, -14%, ., 1%, -15%, -0.3, 11%

Next section.
Values run as follows: TRPV1 PAM, ClpP mod, TRPML1 inh, gsp agonist, gsp antagonist, Menin MLL FP FL, Sfp inh
CCOC(=O)C1CCN(C(c2cc3c(C)ccc(C)c3[nH]c2=O)c2nnnn2C2CCCCC2)CC1 (configuration not stated)
    0, -11%, 5, -26%, -20%, ?, -25%
Cc1ccc(N2CC(C(=O)Nc3cc(C)ccc3F)CC2=O)cc1 (configuration not stated)
    -21, -0.3%, 5, 10%, -10%, 0.8, -8%
CCCCCCn1c(=O)[nH]c2nc3cc(N)ccc3nc2c1=O
    1, 2.6%, -10, 10%, 2%, ?, ?
O=C(Nc1ccc2c(c1)OCO2)c1c(F)cccc1F
    -6, -2.1%, -11, -9%, 3%, 3.5, 14%
CCc1cc(C(=O)Nc2ccccc2)cs1
    -10, 1.1%, 6, 43%, -4%, 1.8, 23%
COc1ccc(-c2nnc3sc(COc4ccc(C)cc4)nn23)cc1
    -10, 1.4%, 13, -44%[inhibitor], 6%, 2.3, ?
CCOC(=O)c1c(NC(=O)CC2SC(N)=NC2=O)sc(C)c1C (configuration not stated)
    8, -7.2%, -7, 1%, -3%, -1.4, 1%
COc1ccc(/C=C(/NC(=O)c2ccccc2)C(=O)NCC2CCCO2)cc1 (configuration not stated)
    0, ., -1, 11%, -5%, ., 3%
O=C(CCCN1C(=O)CCC1=O)Nc1ccccc1F
    8, 3.0%, 1, 2%, 12%, 13, 79µM*
O=[N+]([O-])c1ccc(/C([O-])=C(/C(=S)Nc2ccccc2F)[n+]2ccccc2)cc1
    2, ., -9, 16%[15.4 µM], 0%, 0.7, -16%
CCN(CC(=O)NCCCN1CCOCC1)S(=O)(=O)c1ccc(F)cc1
    12, ., 8, 2%[15.4 µM], ., 0.7, 6%
N[C@@H](Cc1ccc(O)cc1)c1nnc([C@H](CC(=O)O)NC(=O)C2CCNCC2)o1
    -9, -0.4%, 35, -1%, 10%, -1.1, -5%
O=C(Nc1ccc(S(=O)(=O)N2CCC(C(=O)NC3CCCCC3)CC2)cc1)c1ccco1
    -4, -2.7%, 6, -31%[inhibitor], -2%, 1.3, -4%
Cc1ccsc1C(=O)N1CCCC(N(C)Cc2ccccc2)C1 (configuration not stated)
    -23, -0.2%, 16, 3%[15.4 µM], 8%, 1.0, 16%
COc1cccc(-c2c(C(=O)N/N=C/C3CC=CCC3)nnn2-c2nonc2N)c1 (configuration not stated)
    17, -2.2%, 39, 10%, -3%, -1.6, 12%
CCCCC/C(=N\NC(=O)Nc1ccccc1)c1ccccc1
    11, ., -27, -19%[15.4 µM], ., -5.5, 6%
N#CC1=C(N)Oc2n[nH]c(-c3cccs3)c2C1C1C=CCCC1 (configuration not stated)
    9, -0.7%, 29, 16%, -13%, 2.6, 2%
COc1ccc(NC(=S)Nc2cccc(S(=O)(=O)N3CCCCC3)c2)cc1
    8, -1.6%, 6, -2%, 5%, 6.4, -1%
Cc1cc(C)nc(/N=C2\NC(=O)CC(C(=O)O)N2c2ccc(Cl)cc2Cl)n1 (configuration not stated)
    -1, ., 54, -31%[inhibitor], -15%, 0.2, 17%
COc1cc(-c2noc(C)c2/C=C/c2ccc(N)cc2)cc(OC)c1OC
    2, -5.6%&-3.2%, -10, -36%[inhibitor], 17%, 13, 0%

Additional entries.
Values run as follows: TRPV1 PAM, ClpP mod, TRPML1 inh, gsp agonist, gsp antagonist, Menin MLL FP FL, Sfp inh
COc1ccc(-n2c3c(cc(C(=O)N4CCC(C)CC4)c2=O)C(=O)CC(C)(C)C3)cc1
    ., -1.9%, 4, -29%, -6%, -2.8, 21%
O=C(c1ccco1)N1N=C(c2ccco2)CC1c1ccc(Cl)cc1Cl (configuration not stated)
    -7, 3.7%, -10, ?, ?, ., .
O=C(COC(=O)COc1ccc(Cl)cc1Cl)NC1CCS(=O)(=O)C1 (configuration not stated)
    ., -0.7%, -5, ?, 6%, ., .
COC(=O)c1ccc(OCC(O)CN2CCC(C)CC2)cc1 (configuration not stated)
    -11, 2.1%, -5, -17%, 7%, 2.2, 11%
COc1ccc(CCNC(=O)C2CCN(S(=O)(=O)c3cnc[nH]3)CC2)cc1OC
    -7, -0.9%, 7, 1%, -4%, 1.7, 17%
O=C(N/N=C/c1ccc(Cl)s1)c1ccccc1[N+](=O)[O-]
    0, ., 4, -31%[inhibitor][15.4 µM], -2%, 1.8, -26%
C/C=C(\C)CN1CCC(Oc2cc(C(=O)NC3CC3)ccc2OC)CC1
    3, 1.1%, 4, 0%[15.4 µM], 1%, ., 19%
COc1cc(C(=O)OCC(=O)NC2CC2)cc(OC)c1OC
    0, -5.1%, 13, -15%, 11%, ., .
CCCOc1cc(N(CC)CC)ccc1/C=C(/C#N)c1nc2ccc(C)cc2[nH]1
    -10, -0.9%, 32, ?, -7%, ?, ?
CCN(CC)c1ccc(-n2c(O)c(C=C3N=c4ccccc4=N3)sc2=S)cc1
    3, 0.7%, -8, ?, 10%, 1.3, 17%
CC[Si](CC)(CC)O[C@H]([C@@H](C)COCOC)[C@@H](C)COCc1ccc(OC)cc1
    ., ., 0, ., ., -1.1, 0%
CCOC(=O)C1CCN(c2ccccc2CN2CCN(c3ccccc3OCC)CC2)CC1
    -3, -0.3%, ., ?, -11%, 2.0, 11%
CC(=O)Oc1ccccc1C(=O)O
    ., -16%, 2, ., 0%, -2.4&-3.3, 3%&5%
CCc1ccc(OCC(=O)NNC(=O)C2CCN(c3ncnc4sc(C)c(C)c34)CC2)cc1
    3, 0.9%, 18, -12%, -4%, ., .
CCC(Oc1cc(Cl)ccc1Cl)C(=O)NN1C(=O)C2C3CCC(C3=C(C)C)C2C1=O (configuration not stated)
    -5, -3.7%, 4, -38%[inhibitor], 4%, 5.0, 18%
CCCOc1ccc(S(=O)(=O)NCc2ccc(OC)cc2)cc1
    -8, 1.1%, 9, -6%, -5%, 4.6, -3%
Cc1cc(NC(=O)c2ccccc2)sc1C
    -20, 0.1%, 0, -13%, 10%, 2.2, 50µM*
COc1ccc(C(=O)Cn2c(N3CCCCC3)nc3c2c(=O)n(C)c(=O)n3C)cc1OC
    ., -1.0%, ., 16%, -2%, ., .
CCc1ccc(/C(C)=N/NC(=O)CNC(=O)/C=C/c2ccco2)cc1
    ., ., -4, -6%[15.4 µM], 3%, ., .
CC(C)C1Cc2c(sc(NC(=S)NC(=O)c3ccccc3)c2C#N)CO1 (configuration not stated)
    1, 1.2%, -8, -63%[inhibitor], 1%, -0.6, 3%
CC(C)(C)OC(=O)N1CCC[C@H]1c1nnc(SCc2c(F)cccc2Cl)o1
    -7, 1.0%, -6, 10%, -5%, 2.3, -3%
CCn1c(CNc2ccc(C)cc2)nnc1SCC(=O)NCc1ccccc1
    4, 1.1%, 16, -3%, -2%, 2.1, 13%
CCN(CC)c1ccc(C(=O)NN)cc1
    -10, -2.1%, 11, 5%[15.4 µM], -18%, -2.6, -5%

Compound activity as filed in PubChem BioAssay.
